Yeast UUG start: yeast start codon fidelity modulation; S. cerevisiae UUG-firefly luciferase reporter, luminescence/redox ratio; activity score, % at 18.7 µM; 350,000 compounds, 0.13% hits; AID 602363;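 active means replicate mean at a twofold rise or more, about +100% in these data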;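 further: firefly luciferase made from a UUG start codon reports start codon fidelity; reporter light over untreated wells divided by growth signal over untreated wells; some hits fall short of that in this replicate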
Env fusion inh: inhibitors of HIV Env-mediated cell fusion; HeLa-JRFL Env/CEM21 cell fusion, luciferase; inhibition, % at 12.3 µM; 360,000 compounds, 1.1% hits; AID 651610;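 active means mean replicate inhibition score of at least 50 and every replicate individually at or above 50; inconclusive means only one of the two criteria met; inactive means mean below 50 and not all replicates reaching 50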;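 further: 0% = plate neutral controls and 100% = maraviroc near 300 nM; one replicate is shown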
Active calls of the source: *; ? = inconclusive; [ ] = another dose, or the depositor's remark.

SMILES,Env fusion inh,Yeast UUG start
C[C@@H](O)C#Cc1cnc2c(c1)C(=O)N([C@@H](C)CO)C[C@H](C)[C@H](CN(C)C(=O)CN(C)C)O2,-4.8[16.7 µM],5.6
N#C[C@@H]1[C@@H](c2ccc(-c3ccncc3)cc2)[C@@H](CO)N1C(=O)C1CCOCC1,8.3[16.7 µM],-1.2
C[C@@H]1CCCCO[C@@H](CN(C)C(=O)C2CCCCC2)[C@H](C)CN([C@H](C)CO)C(=O)c2cc(NC(=O)CCC(F)(F)F)ccc2O1,-9.1[16.7 µM],21.1
O=C(C[C@H]1CC[C@@H](NS(=O)(=O)c2ccccc2)[C@@H](CO)O1)NCc1ccccc1F,-3.1[16.7 µM],3.7
C[C@@H]1CN([C@H](C)CO)C(=O)Cc2cc(NC(=O)CCCCCC(=O)Nc3ccccc3N)ccc2O[C@H]1CN(C)S(=O)(=O)c1cccs1,3.4[16.7 µM],12.8
CC(C)c1cn(CC[C@@H]2CC[C@H](NS(=O)(=O)Cc3ccccc3)[C@H](CO)O2)nn1,6.6[16.7 µM],4.3
CCCC(=O)Nc1ccc2c(c1)C(=O)N(C)C[C@H](OC)[C@H](C)CN(C(=O)c1ccncc1)[C@H](C)CO2,8.3[16.7 µM],16.6
C[C@@H]1CN([C@@H](C)CO)C(=O)c2cccc(NC(=O)C3CCCCC3)c2O[C@H]1CN(C)Cc1ccc(C(=O)Nc2ccccc2N)cc1,-19.5[16.7 µM],-8.7
CN1C(=O)c2cc(NC(=O)C3CCOCC3)ccc2OC[C@@H]2O[C@H](CC(=O)O)CC[C@H]21,?,-10.2
CC(=O)N(C)C[C@H]1Oc2ncc(C#Cc3ccncc3)cc2C(=O)N([C@@H](C)CO)C[C@@H]1C,-13.8[16.7 µM],2.7
C[C@@H]1CN([C@H](C)CO)C(=O)Cc2cc(NC(=O)Nc3cccc4ccccc34)ccc2O[C@@H]1CN(C)Cc1ccc(-c2ccccc2)cc1,-20.0[16.7 µM],5.1
C[C@@H]1CN([C@@H](C)CO)C(=O)c2cc(NC(=O)Nc3ccccc3)ccc2O[C@@H]1CN(C)Cc1ccc(C(F)(F)F)cc1,-4.5[16.7 µM],3.8
Cc1ccc(S(=O)(=O)Nc2ccc3c(c2)C(=O)N([C@H](C)CO)C[C@H](C)[C@H](CN(C)C(=O)Cc2ccccc2)OCCCC[C@H](C)O3)cc1,-50.1[16.7 µM],13.4
O=C(C[C@H]1CC[C@@H](NC(=O)Nc2ccccc2F)[C@@H](CO)O1)NCc1ccc(Cl)cc1,59.5*[16.7 µM],1.0
C[C@@H]1CN([C@H](C)CO)C(=O)Cc2cc(NS(=O)(=O)c3cn(C)cn3)ccc2O[C@@H]1CN(C)C(=O)NC1CCCCC1,2.3[16.7 µM],-12.6
C[C@@H]1CN([C@H](C)CO)C(=O)c2cc(NC(=O)Cc3ccccc3)ccc2O[C@@H]1CN(C)S(C)(=O)=O,0.7[16.7 µM],-0.7
COCC(=O)Nc1ccc2c(c1)[C@H]1C[C@@H](CC(=O)NCc3cccc(F)c3)O[C@H](CO)[C@H]1O2,3.8[16.7 µM],-0.5
C[C@H]1CN([C@@H](C)CO)C(=O)c2cc(NS(=O)(=O)c3ccccc3)ccc2O[C@H]1CN(C)CC1CC1,31.3[16.7 µM],-5.0
C[C@H]1CN([C@@H](C)CO)C(=O)Cc2cc(NC(=O)Nc3ccc4c(c3)OCO4)ccc2O[C@H]1CN(C)S(=O)(=O)c1ccc(Cl)cc1,-384.9[16.7 µM],3.4
C[C@H](CO)N1C[C@H](C)[C@H](CN(C)C(=O)Nc2ccc3c(c2)OCO3)Oc2ccc(NC(=O)Nc3ccc(F)cc3)cc2CC1=O,14.7[16.7 µM],-7.9
CO[C@@H]1CN(C)C(=O)c2ccc(NC(=O)Nc3cccc(Cl)c3)cc2OC[C@H](C)NC[C@H]1C,-6.5[16.7 µM],0.9
COc1ccc(-c2ccc3c(c2)O[C@@H](CN(C)C)[C@@H](C)CN([C@@H](C)CO)S3(=O)=O)cc1,-9.3[16.7 µM],1.0
C[C@H]1CCCCO[C@@H](CN(C)Cc2ccncc2)[C@@H](C)CN([C@@H](C)CO)C(=O)c2cc(NC(=O)Nc3ccc(F)cc3)ccc2O1,42.1[16.7 µM],-5.7
Cc1ccccc1CN(C)C[C@H]1OCc2cnnn2CCCC(=O)N([C@H](C)CO)C[C@H]1C,-2.1[16.7 µM],-13.9
Cc1ccc(S(=O)(=O)N(C)C[C@@H]2Oc3ccc(NC(=O)Cc4cn(C)c5ccccc45)cc3CC(=O)N([C@@H](C)CO)C[C@H]2C)cc1,-6.0[16.7 µM],-16.3

Reformatted with values under each structure: two of the compounds above
Each structure is followed by: Env fusion inh	Yeast UUG start
- COCC(=O)Nc1ccc2c(c1)[C@H]1C[C@@H](CC(=O)NCc3cccc(F)c3)O[C@H](CO)[C@H]1O2
    3.8[16.7 µM]	-0.5
- C[C@H]1CN([C@@H](C)CO)C(=O)c2cc(NS(=O)(=O)c3ccccc3)ccc2O[C@H]1CN(C)CC1CC1
    31.3[16.7 µM]	-5.0

3 compounds out of the list above, sorted by the value under Yeast UUG start, ascending.
structure,Yeast UUG start
C[C@H](CO)N1C[C@H](C)[C@H](CN(C)C(=O)Nc2ccc3c(c2)OCO3)Oc2ccc(NC(=O)Nc3ccc(F)cc3)cc2CC1=O,-7.9
C[C@@H]1CN([C@@H](C)CO)C(=O)c2cc(NC(=O)Nc3ccccc3)ccc2O[C@@H]1CN(C)Cc1ccc(C(F)(F)F)cc1,3.8
Cc1ccc(S(=O)(=O)Nc2ccc3c(c2)C(=O)N([C@H](C)CO)C[C@H](C)[C@H](CN(C)C(=O)Cc2ccccc2)OCCCC[C@H](C)O3)cc1,13.4

The results go on:
SMILES,Env fusion inh,Yeast UUG start
C[C@@H]1CN([C@@H](C)CO)C(=O)c2cc(NS(=O)(=O)c3ccc(Cl)cc3)ccc2O[C@@H](C)CCCCO[C@@H]1CN(C)Cc1ccccc1,-0.6[16.7 µM],9.4
O=C(C[C@H]1CC[C@@H](NS(=O)(=O)c2ccc(F)cc2)[C@@H](CO)O1)NCCN1CCCCC1,-11.3[16.7 µM],6.2
O=C(Nc1ccc(Cl)c(Cl)c1)N[C@@H]1CC[C@H](CCn2cc(C3CC3)nn2)O[C@H]1CO,-7.7[16.7 µM],12.8
C[C@@H]1CN([C@@H](C)CO)C(=O)Cc2cc(NC(=O)NC3CCCCC3)ccc2O[C@H]1CN(C)Cc1ccc(Oc2ccccc2)cc1,9.9[16.7 µM],-6.4
COCC(=O)N(C)C[C@H]1Oc2ncc(-c3ccc(F)cc3)cc2C(=O)N([C@@H](C)CO)C[C@H]1C,-22.6[16.7 µM],-5.5
Cc1noc(C)c1NC(=O)N(C)C[C@@H]1Oc2ccc(NC(=O)NC(C)C)cc2C(=O)N([C@H](C)CO)C[C@@H]1C,-4.8[16.7 µM],-19.5
C[C@@H]1CN([C@H](C)CO)C(=O)c2cc(NC(=O)C3CCCCC3)ccc2O[C@@H]1CN(C)Cc1ccc(Oc2ccccc2)cc1,-9.0[16.7 µM],10.3
C[C@H](O)C#Cc1cnc2c(c1)C(=O)N([C@H](C)CO)C[C@H](C)[C@H](CN(C)Cc1cccc(F)c1)O2,8.9[16.7 µM],-11.5
CCCN1C[C@H](C)[C@H](OC)CN(C)C(=O)c2cc(NC(=O)C3CCOCC3)ccc2OC[C@H]1C,7.7[16.7 µM],4.0
Cc1ccc(S(=O)(=O)Nc2ccc3c(c2)C(=O)N([C@H](C)CO)C[C@H](C)[C@H](CN(C)S(C)(=O)=O)OCCCC[C@H](C)O3)cc1,4.2[16.7 µM],-0.7
C[C@@H]1CCCCO[C@@H](CN(C)S(=O)(=O)c2ccc(Cl)cc2)[C@H](C)CN([C@@H](C)CO)C(=O)c2cc(NC(=O)Cc3ccccc3)ccc2O1,-2.7[16.7 µM],-5.9
C[C@@H]1CN([C@H](C)CO)C(=O)c2cc(C#Cc3ccccc3F)cnc2O[C@@H]1CN(C)C(=O)Cc1ccccc1,18.1[16.7 µM],-10.6
O=C(Cc1ccncc1)NCC[C@@H]1CC[C@@H](NC(=O)Nc2ccc(F)cc2)[C@H](CO)O1,5.4[16.7 µM],32.5
CC(C)CC#Cc1ccc2c(c1)O[C@H](CN(C)S(=O)(=O)c1ccc(F)cc1)[C@@H](C)CN([C@@H](C)CO)S2(=O)=O,33.0[16.7 µM],17.8
COc1ccc([Si](C)(C)[C@H]2[C@H](CCO)O[C@@]3(C(=O)N(Cc4ccccc4)c4ccc(NC(C)=O)cc43)[C@@H]2C)cc1,-6.9[16.7 µM],14.2
C/C=C/c1ccc2c(c1)O[C@@H](CN(C)C(=O)Cc1ccncc1)[C@H](C)CN([C@@H](C)CO)S2(=O)=O,1.6[16.7 µM],11.7
COc1ccc(NC(=O)N(C)C[C@@H]2Oc3ncc(C#CC(C)C)cc3C(=O)N([C@H](C)CO)C[C@@H]2C)cc1,-3.3[16.7 µM],27.5
C[C@@H]1CN([C@@H](C)CO)C(=O)c2cccc(NS(=O)(=O)c3cn(C)cn3)c2O[C@H]1CN(C)S(=O)(=O)c1cn(C)cn1,15.4[16.7 µM],0.5
CNC(=O)C[C@@H]1CC[C@H]2[C@H](COc3ccc(NC(=O)c4ccc(OC)cc4)cc3C(=O)N2C)O1,-14.1[16.7 µM],1.7
COCC(=O)Nc1ccc2c(c1)[C@@H]1C[C@H](CC(=O)NCc3ccccc3)O[C@H](CO)[C@@H]1O2,-24.5[16.7 µM],-8.5
COc1cccc(C(NC(C)=O)c2nc(-c3ccncc3)cs2)c1 (stereo unspecified),-8.0,-4.0
O=C(C[C@H]1CC[C@H]2NC[C@H](O)COC[C@@H]2O1)Nc1nccs1,-1.5[16.7 µM],-10.8
C[C@H](CO)N1C[C@H](C)[C@@H](CN(C)C(=O)Nc2ccccc2)OCCCC[C@H](C)Oc2ccc(N(C)C)cc2C1=O,-6.8[16.7 µM],1.7
C[C@H](CO)N1C[C@H](C)[C@@H](CN(C)C(=O)CC2CC2)Oc2cc(-c3cccnc3)ccc2S1(=O)=O,-15.2[16.7 µM],-11.4
C[C@H]1CN([C@@H](C)CO)C(=O)c2cc(NS(=O)(=O)c3ccc(F)cc3)ccc2O[C@H]1CN(C)S(C)(=O)=O,-43.5[16.7 µM],1.7

Entries above marked active in Env fusion inh:
SMILES,Env fusion inh,Yeast UUG start
O=C(C[C@H]1CC[C@@H](NC(=O)Nc2ccccc2F)[C@@H](CO)O1)NCc1ccc(Cl)cc1,59.5*[16.7 µM],1.0

The results go on:
SMILES,Env fusion inh,Yeast UUG start
C[C@@H]1CN([C@H](C)CO)C(=O)Cc2cc(NC(=O)C3CC3)ccc2O[C@H]1CN(C)Cc1ccc(C(=O)O)cc1,-1.7[16.7 µM],-8.7
C[C@@H]1CN([C@@H](C)CO)S(=O)(=O)c2ccc(C#CC3(O)CCCC3)cc2O[C@@H]1CN(C)C(=O)Nc1ccccc1,-106.6[16.7 µM],-0.9
COCC(=O)N(C)C[C@H]1Oc2ncc(C#Cc3ccc(F)cc3)cc2C(=O)N([C@@H](C)CO)C[C@@H]1C,-10.2[16.7 µM],18.2
C[C@H]1CCCCO[C@@H](CN(C)C(=O)NC2CCCCC2)[C@@H](C)CN([C@@H](C)CO)C(=O)c2cc(NC(=O)Nc3ccccc3)ccc2O1,39.8[16.7 µM],10.3
Cc1ccccc1S(=O)(=O)N[C@@H]1CC[C@@H](CCn2cc(-c3ccccc3)nn2)O[C@H]1CO,-2.4[16.7 µM],-1.0
C[C@@H]1CN([C@H](C)CO)C(=O)c2cccc(NC(=O)Nc3cccc4ccccc34)c2O[C@H]1CN(C)C(=O)NC1CCCCC1,-2.7[16.7 µM],5.5
C[C@@H]1CN([C@H](C)CO)C(=O)c2cc(NC(=O)Nc3cccc4ccccc34)ccc2O[C@H]1CN(C)C(=O)NC1CCCCC1,6.1[16.7 µM],0.8
COc1cccc(CNC(=O)C[C@H]2CC[C@@H](NS(=O)(=O)c3ccccc3OC)[C@H](CO)O2)c1,-0.5[16.7 µM],-0.7
CNC[C@@H]1Oc2ccc(NS(C)(=O)=O)cc2CC(=O)N([C@H](C)CO)C[C@@H]1C,-11.5[16.7 µM],-12.2
COc1ccc(NC(=O)Nc2cccc3c2O[C@@H](CN(C)Cc2ccc(C(F)(F)F)cc2)[C@H](C)CN([C@H](C)CO)C3=O)cc1,23.2[16.7 µM],18.9
O=C(C[C@@H]1CC[C@@H](NS(=O)(=O)c2ccc(F)cc2)[C@@H](CO)O1)NCCN1CCCCC1,-17.7[16.7 µM],19.1
COC(=O)C[C@@H]1C[C@H]2c3cc(NC(=O)Nc4ccc(F)cc4)ccc3O[C@H]2[C@@H](CO)O1,23.1[16.7 µM],-18.8
C[C@@H]1CCCCO[C@H](CN(C)CC2CCCCC2)[C@H](C)CN([C@@H](C)CO)C(=O)c2cc(NC(=O)Nc3ccccc3)ccc2O1,10.1[16.7 µM],39.2
C[C@@H]1CN([C@@H](C)CO)C(=O)Cc2cc(NC(=O)Cn3cnnn3)ccc2O[C@H]1CN(C)S(C)(=O)=O,-6.3[16.7 µM],-4.4
C[C@H]1CN([C@@H](C)CO)C(=O)c2cc(/C=C/c3ccccc3)cnc2O[C@@H]1CN(C)C(=O)C1CCCCC1,-10.0[16.7 µM],1.3
COCC(=O)N(C)C[C@H]1Oc2cc(-c3ccncc3)ccc2S(=O)(=O)N([C@H](C)CO)C[C@@H]1C,-37.4[16.7 µM],-11.9
O=C(C[C@H]1CC[C@H](NC(=O)Nc2ccccc2F)[C@@H](CO)O1)NCc1ccc(Cl)cc1,16.2[16.7 µM],-4.9
C[C@H](CO)N1C[C@H](C)[C@H](CN(C)Cc2ccccc2)Oc2ncc(-c3cccc(C(F)(F)F)c3)cc2C1=O,22.6[16.7 µM],4.9

Only part of the results is shown (hit frequency here may not be typical).
